# Bioassay records (PubChem)
# V. cholerae QS: Vibrio cholerae quorum sensing activators, luminescence (AID 686977). V. cholerae quorum sensing reporter, luminescence, 6 h; higher luminescence means a stronger effect; most inactives read 0. luminescence at 50 µM unless noted; hits with a dose series show EC50 in µM. 9,400 tested, under 10 active;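 active means light above mean plus 3 SD and confirmed in a dose series; inconclusive means above that limit without a clear retest; inactive means below it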;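 further: raw light counts without normalisation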
# Active calls of the source: *; ? = inconclusive; [ ] = dose if it differs, or a comment. The list is partial. The share of hits here may be higher or lower than overall.
Structure | V. cholerae QS
COc1cccc(CN2CCNC(=O)C2CC(=O)O)c1OC (stereo not drawn) | 40
O=C(Nc1nnc(CC(=O)N2CCOCC2)s1)C1COc2ccccc2O1 (stereo not drawn) | 0
CN1CCc2c(c3c(n2C)CCN(C)C3c2ccc(F)cc2)C1c1ccc(F)cc1 (stereo not drawn) | 0
O=S(=O)(Nc1ncn[nH]1)c1ccc2ccccc2c1 | 40
CCc1ccc(N2CCN(C(=O)c3ccc(OC)c(OC)c3)CC2)cc1 | 0
CC(=O)c1cccc(NC(=O)NCc2ccco2)c1 | 200
Cc1ccc(S(=O)(=O)N(C)CCCC(=O)Nc2ccncc2)cc1 | 0
COc1ccccc1-c1nnc2sc(C3CCCCC3)nn12 | 40
CC(NC(=O)c1ccco1)C(c1cccs1)N1CCN(c2ccccc2)CC1 (stereo not drawn) | 0
COC(=O)c1oc2ccc(Br)cc2c1NC(C)=O | 0
O=C(NCCNC(=O)c1ccc(Br)o1)c1ccc(Br)o1 | 40
c1ccc(-c2nnc3sc(-c4csc5c4CCCC5)nn23)cc1 | 0
CCCn1c(=O)c2ccccc2n2c(SCC(=O)c3ccccc3)nnc12 | 40
Cc1c(NC(=O)CSc2nnc3sc4ccccc4n23)c(=O)n(-c2ccccc2)n1C | 40
COc1ccc(N2C(=O)CCC(C(=O)O)C2c2ccc(OC)c(OC)c2)cc1 (stereo not drawn) | 0
COc1ccccc1OCC(=O)N1CCNC1=O | 0
O=C(NCCc1ccccc1)C1CCCN(C(=O)NC2CCCCC2)C1 (stereo not drawn) | 0
Cc1cc(C(=O)Nc2c(C)cccc2C)n(-c2ccccc2)n1 | 0
Cc1ccc(-c2noc(CSc3nnc(-c4ccccc4)n3C)n2)cc1 | 40
O=C(O)CCc1nc(-c2ccccc2)c(-c2ccccc2)o1 | ?
CC(NC(=O)c1noc2c1CCCCC2)c1ccccc1 (stereo not drawn) | 0
COc1ccc(C2CC(C(F)(F)F)n3nc(C(=O)O)c(Cl)c3N2)cc1OC (stereo not drawn) | 120
COCCn1c(SC)nnc1-c1c[nH]c2ccccc12 | 40
CC(=O)OC(C(=O)NC1CCCCC1)c1ccc(C#N)cc1 (stereo not drawn) | 0
CC(C)N1CCN(c2ccc(OC[C@H]3CO[C@](Cn4cncn4)(c4ccc(Cl)cc4Cl)O3)cc2)CC1 | 40[10 µg/mL]
COc1ccc(CC(=O)N2N=C(C)CC2(O)c2cccnc2)cc1 (stereo not drawn) | ?
CCN(CC)S(=O)(=O)c1ccc(C(=O)Nc2cccc(C)c2)cc1 | 0
CCCC(=O)NCCc1cc2ccc(C)c(C)c2[nH]c1=O | 40
COc1ccc(C(=O)NCCSc2ccccn2)cc1 | 0
Nc1cc(C(Cl)=C(Cl)Cl)c(S(N)(=O)=O)cc1S(N)(=O)=O | 120[10 µg/mL]
COc1ccc(Cl)cc1C(=O)Nc1ccccc1N1CCN(C)CC1 | 0
CCSc1nc2ccccc2n1C(=O)c1ccc(S(=O)(=O)N2CCCCC2)cc1 | 0
CCOc1ccccc1N/C=C(\C#N)c1nc2ccccc2n1C | 0
CNCCC(Oc1ccccc1OC)c1ccccc1 (stereo not drawn) | ?
Cc1cnc(NC(=O)c2ccc(-c3nc4ccccc4s3)o2)s1 | 200
O=C(O)CCc1ccc(-c2cccs2)n1-c1ccc(C(=O)O)cc1 | 0
COC(=O)C1CCN(C(=O)CSc2nnc(-c3ccncc3)o2)CC1 | 40
CCOC(=O)c1c(NC(=O)c2ccoc2C)sc(C)c1C | 0
N[C@@H](C(=O)N[C@@H]1C(=O)N2C(C(=O)O)=C(Cl)CS[C@H]12)c1ccccc1 | 0[10 µg/mL]
Cc1ccc(-c2nc(N)c3c(-c4ccc(C)cc4)nn(C(C)(C)C)c3n2)cc1 | 0
CCCNS(=O)(=O)c1ccc2c(c1)CCCN2C(C)=O | 0
O=C(O)c1nc2ccccc2nc1C(=O)O | 0
O=C(Nc1cccc(Br)c1)c1ccn[nH]1 | 40
CC(C)c1nc2ccccc2n1CCC(=O)O | 40
COc1ccc(OC)c2[nH]c(=O)c(CCNC(=O)C(C)C)cc12 | 240
O=C(Cn1ncc2c(=O)oc3ccccc3c21)N1CCC(N2CCCCC2)CC1 | 320
Cc1ccc(-c2nnn(CC(=O)Nc3ccc(S(=O)(=O)N4CCC(C)CC4)cc3)n2)cc1 | 880
Cc1cccc(C(=O)NCCc2csc(C)n2)c1 | 0
C=CCNC(=O)c1cc(=O)c2ccccc2o1 | 0
CCN1C(=O)NC(c2ccccc2)C1=O (stereo not drawn) | 0[10 µg/mL]
CCOc1ccc(C2CC(c3cccc(OC)c3)n3nc(N)nc3N2)cc1 (stereo not drawn) | 0
CCCCc1cc2ccccc2c(OCCN(C)C)n1 | ?
Fc1ccc(Cn2ccc(-c3cnc(-c4ccccc4)s3)n2)cc1 | 40
COc1ccc(N(C)C2=NS(=O)(=O)c3ccccc32)cc1 | 0
CC(C)CN(C(=O)COC(=O)C12CC3CC(CC(O)(C3)C1)C2)C1CCS(=O)(=O)C1 (stereo not drawn) | 0
CSC1=NCCN1C(=O)c1ccc(S(=O)(=O)N(C)C)cc1 | 0
Cn1c(SCC(=O)NC(c2ccccc2)c2ccccc2)nnc1-c1cccs1 | 40
O=C(Nc1cnn(Cc2ccccc2)c1)c1nc2ncccn2n1 | 0
O=C(C1CC1)N1CCc2cc(S(=O)(=O)NCC3COc4ccccc4O3)ccc21 (stereo not drawn) | 0
COc1ccc2c3c1O[C@H]1C[C@@H](O)C=C[C@@]31CCN(C)C2 | 40[10 µg/mL]

# More compounds follow:
Structure | V. cholerae QS
Cc1cc(C(=O)OCC(=O)N2CC(C)CC(C)C2)c(C)o1 (stereo not drawn) | 0
Cc1c(N2C(=O)/C(=C/c3ccccc3)SC2=S)c(=O)n(-c2ccccc2)n1C | ?
O=C(CSCC(=O)N1CCN(c2ccccc2)CC1)Nc1nc(-c2ccc(Cl)s2)cs1 | 40
N#CCO/N=C(\c1ccccc1)c1ccncc1 | 0
COc1cccc(OCCSc2nnc3sc4ccccc4n23)c1 | 0
CC1CCCC(C)N1CCCNC(=O)c1cc2c(=O)n(C)c3ccccc3c2n1C (stereo not drawn) | 0
CCC(=O)N1CCc2cc(S(=O)(=O)NC(C(=O)NCc3ccc(C)cc3)C(C)C)ccc21 (stereo not drawn) | 0
O=C(NCc1ccc(Cl)cc1)C1CCCN(S(=O)(=O)c2cnc[nH]2)C1 (stereo not drawn) | 0
CCOc1ccccc1C(=O)N1CCC(n2nnc3cc(C)ccc32)CC1 | 0
O=S(=O)(NCc1ccccc1)c1ccc(Cl)c(S(=O)(=O)NCc2ccccc2)c1 | 0
O=C(Nc1nnc(-c2ccc(Cl)cc2)o1)c1nc2ccccc2s1 | 40
O=C(NC1CCCCCC1)C1CCCN(S(=O)(=O)c2cnc[nH]2)C1 (stereo not drawn) | 40
N=c1sccn1CC(=O)Nc1cc(Cl)ccc1Oc1ccccc1 | 0
O=C(Cc1c(C(=O)O)[nH]c2ccccc12)Nc1ccc2c(c1)OCO2 | 0
CC(NC(=O)C1CCCN1S(=O)(=O)c1cccc2cccnc12)c1ccccc1 (stereo not drawn) | 0

# Another view of part of the listing above.
CCOc1ccccc1C(=O)N1CCC(n2nnc3cc(C)ccc32)CC1
- V. cholerae QS = 0

O=S(=O)(NCc1ccccc1)c1ccc(Cl)c(S(=O)(=O)NCc2ccccc2)c1
- V. cholerae QS = 0

# The list continues.
Structure | V. cholerae QS
Cc1onc(-c2ccccc2)c1C(=O)NCCc1ccc(Cl)cc1 | 0
Cc1ccc(C(=O)N/C(=C\c2ccc([N+](=O)[O-])cc2)C(=O)NCCc2ccccc2)cc1 | 40
Cc1ccc(CSc2nnc(CC(=O)Nc3ccc(C)cc3)n2C)cc1 | 0
CCSc1oc(-c2cccs2)nc1S(=O)(=O)c1ccccc1 | 0
CCOC(=O)c1cnc2c(-c3ccccc3)cnn2c1N | 0
Cc1sc2c(c1C)c(=O)nc1n2Cc2ccccc2-1 | 0
COc1ccc(OC)c(C2CC(=O)C(C)C(c3cc(OC)ccc3OC)N2)c1 (stereo not drawn) | 0
CN(C)c1ccc(NC(=O)Cn2c(=O)n(Cc3ccccc3)c(=O)c3ccccc32)cc1 | 0
CCCOc1ccc(N2C(=O)CC(N(CCc3ccc(OC)cc3)C(=O)c3cccc(F)c3)C2=O)cc1 (stereo not drawn) | 0
C=CCn1c(SCCCc2ccccc2)nc2c1c(=O)[nH]c(=O)n2C | 0
Oc1c(CN2CCN(c3ccc(F)cc3)CC2)cc(Cl)c2cccnc12 | 0
Clc1ccc(C(Cn2ccnc2)OCc2csc3c(Cl)cccc23)c(Cl)c1 (stereo not drawn) | 40[10 µg/mL]
COC(=O)c1sccc1-n1cccc1C(=O)C(=O)N1CC(C)OC(C)C1 (stereo not drawn) | ?
CCOCCOCCC(C(=O)O)P(=O)(c1ccccc1)c1ccccc1 (stereo not drawn) | 0
COc1ccc(-c2nnc(SCCC(=O)O)n2C)cc1OC | 40

# Further records
molecule	V. cholerae QS
c1cn2cc(-c3ccc4c(c3)OCO4)nc2s1	0
Cc1cc(NC(=O)CSc2nnc(-c3cccnc3)n2C2CCCCC2C)no1 (stereo not drawn)	0
O=C(NNS(=O)(=O)c1ccc([N+](=O)[O-])cc1)c1cnn(-c2ccccc2)c1-n1cccc1	0
Cc1ccc2nc(-c3ccc4c(c3)OCCO4)cc(C(=O)O)c2c1	0
CCCC(=O)NC(C)c1nc2ccccc2n1C(C)C (stereo not drawn)	0
CCOC(=O)C1CCCN(c2cc(=O)n(-c3ccccc3Cl)c(=O)[nH]2)C1 (stereo not drawn)	?
Cc1ccc(S(=O)(=O)C2(C(=O)Nc3cccc(F)c3)CC2)cc1	0
CC1(C)S[C@@H]2[C@H](NC(=O)[C@H](NC(=O)N3CCNC3=O)c3ccccc3)C(=O)N2[C@H]1C(=O)O	0[10 µg/mL]
COc1ccc(C(C(=O)NC2CCCC2)N(C(=O)c2snc(-c3ccc(F)cc3)c2N)c2cccc(F)c2)cc1 (stereo not drawn)	0
CCN1CCN(C(=O)CN(CCc2ccccc2)S(C)(=O)=O)CC1	120
CCc1nc(SCC(N)=O)c2c(=O)n(C)c(=O)n(C)c2n1	40
COc1ccc(C(=O)NCc2cn3ccsc3n2)cc1OC	40
FC(F)(F)c1nnc2c(Sc3ccccc3)nc3ccccc3n12	0
CC(C)NC(=O)C(=O)NCCN1CCN(S(=O)(=O)c2ccc(Cl)cc2)CC1	0
FC(F)(F)c1cc(-c2ccc(Cl)cc2)nc(NCc2cccnc2)n1	0
CN(C)S(=O)(=O)c1ccc(N2CCCC2)c(C(=O)Nc2ccc(N3CCOCC3)cc2)c1	0
Cc1ccc(NC(=O)c2cc(-c3cccs3)on2)cc1	40
CCc1ccc(C2CC(c3ccco3)=NN2S(C)(=O)=O)cc1 (stereo not drawn)	0
CCOC(=O)c1[nH]c(C)c(C(=O)N(C)Cc2ccccc2)c1C	0
Cc1[nH]nc(SCC(=O)N2CCCCC2)c1[N+](=O)[O-]	0
O=C(CN1CCN(CCC(=O)Nc2ccccc2F)CC1)Nc1ccc(Cl)cc1	?
COC(=O)C(NC(C)=O)(Nc1nc2c(C)cc(C)cc2s1)C(F)(F)F (stereo not drawn)	0
CN(C)/C=C1/N=C(c2ccccc2)OC1=O	0
Cc1nc(NC(C)c2ccccc2)c2oc3ccccc3c2n1 (stereo not drawn)	0
O=C(CC1C(=O)NC2CCCCC2N1C(=O)c1ccc(F)cc1)Nc1ccccc1 (stereo not drawn)	0
O=C(Nc1cc(Cl)cc(Cl)c1)C1CCC(=O)N1Cc1ccccc1Cl (stereo not drawn)	40
CO[C@@]1(NC(=O)Cc2cccs2)C(=O)N2C(C(=O)O)=C(COC(N)=O)CS[C@@H]21	0[10 µg/mL]
Cc1ccc(C)n1-n1c(C)nc2sc(-c3ccccc3)cc2c1=O	40
Cc1onc(C(=O)N2CCC(C(N)=O)CC2)c1-c1ccccc1Cl	0
CN(C)c1ccc(-c2nn3c(-c4ccc(Cl)cc4Cl)nnc3s2)cc1	0
CCCNS(=O)(=O)c1cccc2cccnc12	40
O=[N+]([O-])c1cc2c(c(CSc3nnc(Nc4ccccc4)s3)c1)OCOC2	160
CCSCCOC(=O)C1=C(C)NC(=O)NC1c1ccccc1 (stereo not drawn)	40
Nc1ccc2nc3n(c(=O)c2c1)CCC3	0
Clc1ccc(Sc2cc(N3CCOCC3)nc(-c3ccccc3)n2)cc1	0
CC(=O)N1CCN(C(=O)Cn2c(=O)oc3ccccc32)CC1	40
COC(C(=O)Nc1ccccc1F)c1ccccc1 (stereo not drawn)	0
CCCOc1ccc(CSc2nc3ccccc3[nH]2)cc1	40
CN(C)S(=O)(=O)c1cccc(C(=O)N2CCN(Cc3ccccc3)CC2)c1	0
CCN(c1cccc(C)c1)c1ncnc2nc[nH]c12	0
Cc1ccc2oc3c(c(=O)c2c1)C(c1cccc(O)c1)N(c1ccccn1)C3=O (stereo not drawn)	280

# Grouped by structure: those above with an NH in an aromatic ring
molecule	V. cholerae QS
O=S(=O)(Nc1ncn[nH]1)c1ccc2ccccc2c1	40
COCCn1c(SC)nnc1-c1c[nH]c2ccccc12	40
CCCC(=O)NCCc1cc2ccc(C)c(C)c2[nH]c1=O	40
O=C(Nc1cccc(Br)c1)c1ccn[nH]1	40
COc1ccc(OC)c2[nH]c(=O)c(CCNC(=O)C(C)C)cc12	240
O=C(NCc1ccc(Cl)cc1)C1CCCN(S(=O)(=O)c2cnc[nH]2)C1 (stereo not drawn)	0
O=C(NC1CCCCCC1)C1CCCN(S(=O)(=O)c2cnc[nH]2)C1 (stereo not drawn)	40
O=C(Cc1c(C(=O)O)[nH]c2ccccc12)Nc1ccc2c(c1)OCO2	0
C=CCn1c(SCCCc2ccccc2)nc2c1c(=O)[nH]c(=O)n2C	0
CCOC(=O)C1CCCN(c2cc(=O)n(-c3ccccc3Cl)c(=O)[nH]2)C1 (stereo not drawn)	?
CCOC(=O)c1[nH]c(C)c(C(=O)N(C)Cc2ccccc2)c1C	0
Cc1[nH]nc(SCC(=O)N2CCCCC2)c1[N+](=O)[O-]	0
CCCOc1ccc(CSc2nc3ccccc3[nH]2)cc1	40
CCN(c1cccc(C)c1)c1ncnc2nc[nH]c12	0
